gsp ag = agonists of gsp mutant (McCune-Albright syndrome) | Potency, µM (doses to about 76.9 µM), for the others: at the highest dose activation (cAMP increase), hits mostly activators | gsp mutant cells, cAMP HTRF, 30 min; control for the full effect not named in the record | 340,000 compounds, 0.13% hits; active = well fitted activation curve with a large enough effect; inconclusive = small, poorly fitted or top-dose-only effect, or another doubt; inactive = no such curve, though single readings can be large or run the other way; cell line not stated here;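 further: phosphodiesterase inhibitor Ro 20-1724 added with compounds to block cAMP breakdown; potency means the concentration at half of the fitted maximal effect; nearly all actives have a fitted effect of over 60% in size; about a fifth of the inactives were tested at one dose only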
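Cells stably selected in G418 were plated at 2000/well, grown 16-24 hr, then given compounds in DMSO with the PDE inhibitor […] (300 uM solution added) for 30 min at 37C; cAMP was read by HTRF.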
D2 agonist = human D2 receptor agonism in beta-arrestin assay. DiscoveRx PathHunter D2 beta-arrestin, luminescence, 90 min; 100% = 57 uM dopamine signal. AID 624465. activation, % (no concentration beside the values). P14416. 360,000 compounds, 0.084% hits; in the data active = activation above about 40%; inconclusive = about 15% to 40%; inactive = below about 15%; further: compound concentration not given in the record; the text of the record calls up to 30% inactive
Target sequence (P14416 whole entry, looked up): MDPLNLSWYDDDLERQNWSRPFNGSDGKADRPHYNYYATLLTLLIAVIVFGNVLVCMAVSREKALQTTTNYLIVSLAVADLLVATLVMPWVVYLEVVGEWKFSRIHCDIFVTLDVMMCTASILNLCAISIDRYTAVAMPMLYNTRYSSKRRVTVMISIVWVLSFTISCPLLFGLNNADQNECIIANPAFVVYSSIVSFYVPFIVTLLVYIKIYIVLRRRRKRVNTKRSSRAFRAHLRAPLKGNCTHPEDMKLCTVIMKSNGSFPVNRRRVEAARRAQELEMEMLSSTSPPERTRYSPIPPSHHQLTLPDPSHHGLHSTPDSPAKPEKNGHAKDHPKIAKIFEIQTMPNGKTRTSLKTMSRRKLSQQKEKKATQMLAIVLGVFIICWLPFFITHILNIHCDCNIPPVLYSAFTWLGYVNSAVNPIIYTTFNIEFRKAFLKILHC
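Agonist mode: compounds alone added to overnight-plated D2 PathHunter cells for 90 min at 37 C, with 57 uM final dopamine (EC100) defining full response. Beta-arrestin recruitment detected by chemiluminescent reagent, read after 1 h at ambient temperature.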
CtBP-E1A inh = inhibitors of CtBP/E1A interaction | AlphaScreen GST-E1A/His-CtBP binding, 1536-well; active compounds read low; control for the full effect not named in the record | activity change, % (concentration not given with the values) | 340,000 compounds, 0.49% hits | AID 651724; in the data active means activity change below about -65%; inconclusive means about -30% to -65%; inactive means above about -30%; further: on the % scale 0 is the no-effect control and ±100 the full control effect
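Protein mix (5X: 125 nM each GST-E1A, His-CtBP) was incubated with pinned compound 2 h at 37 deg C in dark, in 50 mM Tris pH 8.0 buffer with 300 mM NaCl. Glutathione donor and nickel acceptor beads followed; AlphaScreen signal read after 1 h.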
Six1-Eya2 inh = blocks human Six1 binding to Eya2; AlphaScreen GST-Six1/His-Eya2 binding, biochemical; active compounds read low; control for the full effect not named in the record; activity change, % (no concentration beside the values); 360,000 compounds, 0.56% hits; in the data active = activity change below about -65%; inconclusive = about -30% to -65%; inactive = above about -30%; further: on the % scale 0 is the no-effect control and ±100 the full control effect
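Compounds are tested against tagged Six1 and Eya2 proteins bridged by glutathione donor and nickel acceptor beads; after a one-hour incubation at 37 °C without light, AlphaScreen emission is recorded.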
D2 PAM = human D2 receptor positive allosteric modulation; P14416; potentiation, % (concentration not given with the values); 360,000 compounds, 0.23% hits; DiscoveRx D2 beta-arrestin cells, luminescence, 90 min; 100% = 57 uM dopamine signal; active = potentiation of 50% or more; inconclusive = 30% to 50%; inactive = 30% or less;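 further: tested on top of an EC20 dose of dopamine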
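PathHunter beta-arrestin assay in DiscoveRx D2 cells. Compounds were added with an EC20 of dopamine (50 nM final) for 90 min at 37 deg C. Luminescence was read 1 h after detection reagent, with 57 uM dopamine as the EC100 control.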
gsp antagonist = antagonists of gsp mutant (McCune-Albright syndrome). gsp-mutant cells, cAMP HTRF, 30 min; control for the full effect not named in the record. Potency, µM (top dose mostly 76.9 µM), for the others: at the highest dose activity change, negative = inhibition, usual class: inhibitors. 340,000 compounds, 0.4% hits. AID 624288; active = falling curve of any shape with a large fitted effect; inconclusive = falling curve, mostly with a smaller effect; inactive = flat or rising curve; cell line not stated here;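 further: intracellular cAMP measured with PDE inhibitor Ro 20-1724 present during compound exposure; potency means the concentration at half of the fitted maximal effect; on the % scale 0 is the no-effect control and ±100 the full control effect; nearly all actives have a fitted effect of over 65% in size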
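HTRF cAMP read-out (cAMP-d2 plus anti-cAMP antibody-K in lysis buffer, 30 min RT). Before lysis, cells are exposed to compounds with […] for 30 min at 37C in DPBS containing Ca/Mg, BSA and Tween 20.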
Starred values were filed as active, the others as inactive; ? = inconclusive; nt = no result given; [ ] = another dose, or the depositor's remark. An unsorted share of the library; overall some 1.4% were active at least once.

SMILES	gsp ag	D2 agonist	CtBP-E1A inh	Six1-Eya2 inh	D2 PAM	gsp antagonist
O=C(O)c1cccc(NC(=O)c2cc(-c3cccc(Cl)c3)nc3ccccc23)c1	24%[15.4 µM]	-2.6	12	0	-3	-8%
CCCC(=O)C1=C(O)C(C(=O)OC)C(C)(C)CC1=NC(C)C (configuration not stated)	1%	0.3	4	17	0	5%
O=C(N/N=C/c1ccc(O)c(O)c1)c1cc(-c2ccccc2)nc2ccccc12	5%[15.4 µM]	8.6	0	-19	4	-2%
COc1ccc(C2CC(=O)c3cnc(N4CCN(Cc5ccccc5)CC4)nc3C2)cc1 (configuration not stated)	-35%[inhibitor]	-1.3	-8	-6	-3	-2%
O=[N+]([O-])c1ccc2nc(SCc3ccccc3Cl)sc2c1	-12%	3.1	-10	-26	-6	25µM*
O=C(c1ccc(Cl)cc1)C1CCN(C(=O)C2CC2)CC1	3%	-0.1	6	7	0	13%
CCOC(=O)c1ccc(Nc2cc(C)nc(C)c2C(=O)OCC)cc1	-7%	-3.5	6	-4	-22	-4%
CC(C)C(=O)Nc1csc(C(F)(F)F)c1-c1ccccc1	-4%	-4.5	nt	35	-12	-5%
CSCCC(NC(=O)c1ccc(C(C)(C)C)cc1)C(=O)O (configuration not stated)	3%[15.4 µM]	-1.5	7	4	-3	9%
CC(=O)c1ccc(S(=O)(=O)Nc2ccc(S(=O)(=O)N3CCCCC3)cc2)cc1	?	0.4	12	7	1	-16%
COc1ccc(N/C=C(\C#N)S(=O)(=O)c2ccc(OC)cc2)cc1	4%[15.4 µM]	-4.9	-1	-4	-7	-19%
COc1ccc(C(CC(=O)N2CCN(c3ccccc3)CC2)c2c(OC)cc(OC)c3ccc(=O)oc23)cc1 (configuration not stated)	-12%	0.2	nt	-19	-15	-15%
Nc1nccc2c1ncn2C1OC(CO)C(O)C1O (configuration not stated)	1%	-3.0	0	7	-3	nt
NC(N)=S	nt	-3.7	6	3	6	2%
CCOC(=O)c1sc(NC(=O)C2CC(=O)N(c3ccc(C)cc3)C2)nc1C (configuration not stated)	0%	-1.4	-2	-8	-5	?
O=C(NC1CCCCC1)c1ccc(-n2cncn2)c([N+](=O)[O-])c1	10%[15.4 µM]	-0.4	4	2	-1	1%
Nc1c(C(=O)CSc2nc3ccccc3o2)c(=O)[nH]c(=O)n1C1CC1	25%	-1.0	-16	-1	-3	5%
CCOC(=O)C1CCN(C(=O)CSC2=NCCS2)CC1	-7%	-4.3	1	7	-3	12%
CC(C)NC(=O)NC(=O)COC(=O)c1cc[n+]([O-])cc1	6%[15.4 µM]	-4.2	-1	9	1	-3%
CCN(C(=O)COC(=O)c1cccnc1SC)C1CCCCC1	-2%	-5.4	-1	9	-4	0%
COc1ccc(N/C=C(\[N+](=O)[O-])S(=O)(=O)c2ccccc2)cc1	17%	-0.6	-5	4	-3	-4%
COc1ccc(C(=O)NCc2csc(C(C)C)n2)cc1OC1CCN(C(C)=O)CC1	13%	-3.1	0	5	1	-4%
COc1ccc(-n2cnnc2SCC(=O)Nc2ccc(C(N)=O)cc2)cc1	4%[15.4 µM]	-4.4	-11	-2	-7	-3%
CCOc1cc(C(=O)N2CCN(c3ccccn3)CC2)cc(OCC)c1OCC	0%[15.4 µM]	3.8	-2	-6	-5	1%
O=C(NCC(c1ccco1)N1CCc2ccccc21)c1ccccc1Br (configuration not stated)	-9%	-1.3	-4	-24	1	-2%
O=C(CCn1c(=S)oc2ccccc21)NC1CCCCC1	0%	2.1	14	5	4	11%
O=C(O)CC(Cc1ccc(Cl)cc1)C(=O)Nc1ccccc1 (configuration not stated)	-25%	-3.1	nt	5	10	-1%
CCCCNc1ccc(C(CC(N)=O)NC(=O)c2ccccc2)cc1[N+](=O)[O-] (configuration not stated)	-52%[inhibitor]	-1.8	nt	-6	-10	-2%
COc1ccc(-c2cccc(NC(=O)c3cccs3)c2)nn1	-16%[15.4 µM]	5.8	-21	?	2	-39%
Cn1c(SCc2ccccc2F)nc2ccccc2c1=O	-2%[15.4 µM]	-3.7	7	10	-4	-19%
COc1ccc(N/C=C\C(=O)c2ccc3c(c2)OCO3)cc1	-6%	-2.4	-5	-7	-20	5%
N#C/C(=C\c1ccc(OCc2ccc(Br)cc2)cc1)C(=O)Nc1cccc(C(=O)O)c1	-7%[15.4 µM]	-5.9	0	11	-10	-14%
O=C(CC(=O)N/N=C\c1cccc(Cl)c1Cl)NCc1ccccc1	12%[15.4 µM]	0.4	-11	8	0	-1%
C[C@H]1CN([C@@H](C)CO)C(=O)CCCn2nncc2CO[C@@H]1CN(C)C(=O)Nc1cccc2ccccc12	0%	-2.9	7	1	10	nt
CCn1c(/C=C/N(C(C)=O)c2ccccc2)[n+](CCCS(=O)(=O)[O-])c2cc(Cl)c(Cl)cc21	?	-0.1	1	11	-4	9%
COc1cc(/C=C/C(=O)OCC(=O)c2c[nH]c3ccccc23)ccc1OC(F)F	-32%[inhibitor]	3.1	-10	-13	1	-15%
CCn1c(SCC(=O)NCc2cccs2)nnc1-c1ccncc1	5%	1.0	5	5	5	1%
COc1ccc(N2CCc3c(C)nc(SC)nc32)cc1	19%[15.4 µM]	0.3	-4	-5	-16	nt
COCc1nnc(NC(=O)C23CC4CC(CC(C4)C2)C3)s1	8%[15.4 µM]	-4.8	-25	3	0	-5%
CC(C)(C)c1cc(=O)[nH]c(SCc2ccccc2Cl)n1	-9%[15.4 µM]	3.2	6	-2	14	6%
COc1ccc(C2C(C(=O)O)CCC(=O)N2c2ccc(C)cc2)cc1OC (configuration not stated)	7%[15.4 µM]	5.6	-2	7	0	4%
COc1ccc2[nH]c3c(=O)n(Cc4ccco4)cnc3c2c1	-37%[inhibitor]	1.2	0	-1	-6	22%
CS(=O)(=O)Nc1cccc(-c2cn3c(n2)SCC3)c1	?	-5.1	nt	-28	-14	1%
O=C(CCNC(=O)c1ccc(Cl)cc1)Nc1ccccc1N1CCCCC1	-2%[15.4 µM]	2.4	-3	-14	-4	?
Cn1nc(C(F)(F)F)c(/C=N/OC(=O)c2ccccc2Cl)c1SCc1ccccc1Cl	-30%[inhibitor]	-3.1	14	11	-16	-8%
C=CCn1c(CCNC(=O)c2ccc(Cl)c(Cl)c2)nnc1SCCOc1ccc(OC)cc1	-20%	2.7	-6	-22	7	?
Cc1c(Cl)cccc1N(CC(=O)N1CCCCCC1)S(C)(=O)=O	-20%	0.3	-6	-12	-3	-9%
O=C(O)CCc1[nH]c2ccccc2c1Sc1ccccc1	-1%[15.4 µM]	-4.1	10	4	-10	-18%
O=CNCCCc1nc2ccccc2n1CCc1ccccc1	18%[15.4 µM]	-1.5	-21	10	-7	6%
COc1ccc(OC)c(C(c2nnnn2C2CCCC2)N2CCN(c3ccccc3)CC2)c1 (configuration not stated)	?	-4.6	-5	-22	-17	-17%
C=CCN1C(=O)C(CC(=O)O)SC1=Nc1c(C)n(C)n(-c2ccccc2)c1=O (configuration not stated)	11%	1.3	1	7	-7	10%
O=C(COc1ccccc1/C=C1\SC(=O)NC1=O)Nc1ccccc1	-40%[inhibitor]	-4.1	?	3	-3	-15%
O=C(O)Cn1cnc2scc(-c3ccccc3)c2c1=O	-41%[inhibitor]	0.3	11	5	-4	8%
CCc1c(C)nc(N)nc1Cl	-9%[15.4 µM]	-3.2	5	-5	-3	7%
CCC(Sc1nc(N)c(NC(=O)c2ccc(OC)c(OC)c2)c(=O)[nH]1)C(=O)OC (configuration not stated)	?	-5.7	-2	0	-5	2%
O=C(NCCCNC(=O)c1cnccn1)c1ccc(Cl)c(Cl)c1	17%[15.4 µM]	-1.4	-20	2	-9	7%
Nc1ncnc2c1ncn2[C@@H]1O[C@H](C(=O)N2CCC(F)(F)CC2)[C@@H](O)[C@H]1O	nt	-2.0	0	0	2	nt
N#Cc1ccc2c(c1)nnn2-c1ccccc1	-3%[15.4 µM]	0.5	-5	4	3	11%
S=C(NCCc1ccccn1)Nc1ccccc1	-19%	-5.2	-2	7	-1	3%
Cc1ccc(S(=O)(=O)N2CCC(NC(=O)C3CCCCC3)CC2)cc1	-5%[15.4 µM]	-5.2	-3	-19	-7	-5%

Copied from the list:
C=CCN1C(=O)C(CC(=O)O)SC1=Nc1c(C)n(C)n(-c2ccccc2)c1=O (configuration not stated) in D2 PAM → -7
C=CCn1c(CCNC(=O)c2ccc(Cl)c(Cl)c2)nnc1SCCOc1ccc(OC)cc1 in gsp ag → -20%

(continued)
SMILES	gsp ag	D2 agonist	CtBP-E1A inh	Six1-Eya2 inh	D2 PAM	gsp antagonist
Cc1ncc(CO)c2cc(-c3nnc(Nc4ccc5c(c4)OCO5)s3)c(=O)oc12	1%[15.4 µM]	0.2	-16	1	-5	2%
CCOC(=O)C(CO)NC(=O)C1(NC(C)=O)CCCC1 (configuration not stated)	-5%	1.1	3	6	2	3%
Cc1cccn2c(=O)c3cc(C(=O)NCc4cccnc4)c(=N)n(C(C)C)c3nc12	?	11	-3	-11	16	5%
COc1ccc(C2c3c(-c4ccccc4)n[nH]c3C(=O)N2c2ccc(C(=O)O)cc2)cc1 (configuration not stated)	-3%	-1.8	-6	-1	-8	2%
COC(=O)c1ccc(CSc2ccc3nnc(-c4ccc(OC)c(OC)c4)n3n2)o1	20%	-6.3	nt	-6	-12	-3%
O=[N+]([O-])c1cc(S(=O)(=O)N2CCCC2)ccc1OCCOc1ccccc1	-28%	-6.4	-7	-9	1	1%
CCCCN(CC)C(=O)c1cc2c(=O)n3cccc(C)c3nc2s1	?	-1.8	nt	23	-5	-3%
N#CC(C#N)=C1C=CC=CN1/C(=C\c1ccccc1Cl)C(=O)c1ccccc1	4%	-8.0	7	?	-42	10%
CN(C)CCN(C(=O)c1ccc2ccccc2c1)c1nc2cc3c(cc2s1)OCCO3	21%	-4.6	0	-25	-47	-14%
COc1ccc(NC(=O)CN(C)S(=O)(=O)c2cccc3nsnc23)cc1	-46%[inhibitor]	0.9	nt	1	17	-2%
CN(C)CCNc1ncnc2c1ncn2[C@H]1CN(Cc2ccccc2)C[C@@H](CO)O1	nt	1.8	10	6	-2	nt
O=C(N/N=C1\CCCc2ccccc21)c1ccccc1Cl	21%	1.1	2	6	-7	-7%
Nc1c(C(=O)c2ccc(Cl)cc2)oc2ccccc12	21%	-4.3	2	7	-22	5%
C[C@]12C(=O)N(c3ccc(C(F)(F)F)cc3)C(=O)N1[C@H]1c3ccccc3OC[C@@H]1[C@H]2c1ccccc1	?	-0.5	-6	-6	-3	2%
C/C(=N\N)c1c(-c2ccccc2)c2cc(Br)ccc2[nH]c1=O	-20%[15.4 µM]	-3.0	-11	-10	-1	2%
